Screens from PubChem BioAssay.
FEN1 inhibitor: human FEN1 inhibition; Recombinant FEN1 flap cleavage, fluorescence, 15 min; Potency, µM (top dose mostly 114 µM), for the others: at the highest dose activity change, negative = inhibition, usual class: inhibitors; actives 0.35% (n = 390,000); AID 588795; note: nearly all actives have a fitted effect of over 65% in size
Target sequence (P39748 whole entry, looked up): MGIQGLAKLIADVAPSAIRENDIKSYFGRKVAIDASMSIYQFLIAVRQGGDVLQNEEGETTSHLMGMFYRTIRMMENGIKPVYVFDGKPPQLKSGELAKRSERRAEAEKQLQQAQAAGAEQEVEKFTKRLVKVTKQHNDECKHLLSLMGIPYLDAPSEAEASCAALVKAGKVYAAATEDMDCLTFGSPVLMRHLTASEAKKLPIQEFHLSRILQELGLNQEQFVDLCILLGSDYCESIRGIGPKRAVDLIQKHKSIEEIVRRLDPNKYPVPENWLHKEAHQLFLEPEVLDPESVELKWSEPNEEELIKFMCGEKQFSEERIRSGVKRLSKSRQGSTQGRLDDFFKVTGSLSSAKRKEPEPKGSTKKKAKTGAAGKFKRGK
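Potency values derive from four-parameter Hill fits of normalized qHTS data. The reaction used 10 nM FEN1 preincubated 15 min at room temperature with compound, then 50 nM DNA substrate, read at 0 and 15 min.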
N370S GC: N370S glucocerebrosidase modulation, Gaucher chaperone candidate. N370S GC spleen homogenate, 4MU-glucoside fluorescence. Potency, µM (doses to about 59.4 µM), inactives show at the top dose activity change, negative = inhibition, actives largely listed as inhibitors. actives 0.092% (n = 330,000). AID 2101;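 note: 0% = full enzyme activity and -100% = no enzyme basal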
Numbers without * were called inactive; ? = inconclusive; nt = no result given; & = joins results of further samples. Calls come from the whole dose curve; as a rule, active = well fitted curve in the direction sought with a large enough effect; inconclusive = small, poorly fitted or top-dose-only effect, or another doubt; inactive = no such curve, though single readings can be large; an effect the other way counts as inactive or inconclusive. Unless noted, % is set by controls: 0 for no effect and ±100 for the full control effect; potency is the fitted concentration of half-maximal effect. A portion of the library, and most or all hits are left out here.

SMILES	FEN1 inhibitor	N370S GC
O=C(NCCN1CCOCC1)c1ccc(CS(=O)c2ccccc2Cl)o1 (configuration not stated)	-3.9%	-5.2%
Cc1ccc(NC(=O)COC(=O)C2=NN(c3ccccc3)C(=O)CC2)c(Br)c1	2.8%	nt
CC(C1CC1)N(C(=O)c1ccccc1O)c1ccccc1 (configuration not stated)	4.6%	-2.7%
Cc1ccc(CN2C3CCCC2CC(NC(=O)c2ccc(C)cc2)C3)cc1 (configuration not stated)	-4.7%	-2.3%
O=C(/C=C/c1ccco1)OCC(=O)c1cccc([N+](=O)[O-])c1	-3.5%	-3.2%
CC1CCN(C(=S)NC(=O)c2cccc([N+](=O)[O-])c2)CC1	-4.2%	-4.3%
COc1ccccc1OCCCCOc1ccccc1C(C)=O	-16.8%	7.8%
O=C(/C=C/c1ccc(Cl)c([N+](=O)[O-])c1)c1cccnc1	-6.9%	7.4%
CN1CCN(NC(=O)c2ccc(S(=O)(=O)N3CC4(C)CC3CC(C)(C)C4)cc2)CC1 (configuration not stated)	-15.6%	0.8%
O=C(Cc1ccc(Cl)cc1)Nc1ccc(N2CCCC2)cc1	0.0%	1.2%
COc1cccc(C2C3=C(N=c4s/c(=C\c5ccc(O)cc5)c(=O)n42)c2ccccc2CC3)c1OC (configuration not stated)	-0.6%	-4.6%
Cc1csc(C(=O)O)c1NC(=O)c1cccc([N+](=O)[O-])c1	1.4%	13.9%
CCC1(C(=O)OC)NC(c2ccco2)C2C(=O)N(c3ccc(C)cc3)C(=O)C21 (configuration not stated)	-3.2%	-3.9%
O=C(c1cccc(Cl)c1)N1CCCC(C(=O)N2CCN(c3ccccc3)CC2)C1 (configuration not stated)	-1.1%	-7.8%
COc1cccc(NC(=O)c2ccc3c(SCC(=O)O)c4c(nc3c2)CCCC4)c1	0.7%	-8.1%
COc1ccc2nc(NC(=O)C(NS(=O)(=O)c3cccs3)C(C)C)sc2c1 (configuration not stated)	5.1%	17.1%
COc1ccc(N2CCN(C(=O)c3cc4c(s3)-c3ccccc3S(=O)(=O)C4)CC2)cc1	-2.5%	5.4%
COc1ccc(Sc2nc(-c3ccccc3)ncc2C(=O)O)cc1	13.3%	-2.0%
COc1ccc(CCNC(=O)COC(=O)CCC(=O)c2ccc(F)cc2)cc1	-3.0%	7.4%
C=CCSc1nnc(NC(=O)c2cccc(S(=O)(=O)N(C)c3ccccc3)c2)s1	-5.0%	3.6%
CC1CCc2c(sc(NC(=O)CSc3nc(N)cc(=O)[nH]3)c2C(N)=O)C1 (configuration not stated)	-17.9%	-0.3%
CC12CCC(=O)C=C1CCC1C2C(=O)CC2(C)C1CC[C@]2(O)C(=O)CO (some centres not stated)	-1.2%	-15.9%
O=C(C1=C(O)C(=O)N(CCN2CCOCC2)C1c1cccnc1)c1cc2ccccc2o1 (configuration not stated)	-3.2%	1.3%
Cc1cccc(Nc2nc(N3CCN(C)CC3)nc(N)c2[N+](=O)[O-])c1	1.4%	27.2%
CS(=O)(=O)N1CCc2cc(S(=O)(=O)Nc3ccc4oc5c(c4c3)CCCC5)ccc21	-12.6%	-6.0%

Whole records as entered above.
`COc1ccc(Sc2nc(-c3ccccc3)ncc2C(=O)O)cc1` in the list: FEN1 inhibitor: 13.3%; N370S GC: -2.0%
`COc1ccc2nc(NC(=O)C(NS(=O)(=O)c3cccs3)C(C)C)sc2c1` (configuration not stated) in the list: FEN1 inhibitor: 5.1%; N370S GC: 17.1%

(continued)
SMILES	FEN1 inhibitor	N370S GC
CC(C)N(Cc1cnn(C)c1)C(=O)c1ccc(OC2CCN(Cc3ccccn3)CC2)cc1	-10.2%	0.8%
CC(C)CC(=O)NC1CC(=O)N(c2ccc3c(c2)OCCO3)C1 (configuration not stated)	-14.0%	nt
Cc1ccccc1-n1nnnc1SCC(=O)NNC(=O)c1ccc(NC(=O)CC#N)cc1	-13.2%	nt
O=C(Nc1ccccc1)c1nnn(Cc2ccccc2)c1NC(=O)C(F)(F)F	-3.1%	0.6%
COc1ccc(CNC(=O)CN2C(=O)COc3ccc(S(=O)(=O)N4CCCC4)cc32)cc1	-0.9%	-23.9%
COc1ccccc1NC(=O)c1sc2nc(-c3cc4cc(Cl)ccc4oc3=O)[nH]c(=O)c2c1C	14.9%	nt
O=C(O)CCc1ccc(S(=O)(=O)Nc2ccc(OCc3ccccc3)cc2)cc1	1.5%	-2.3%
Cc1c(/C=N/NC(=O)CNc2ccccc2)c2ccccn2c1C(=O)c1ccccc1	-16.2%	-3.6%
Cc1ccc(S(=O)(=O)NCC2(c3ccccc3)CCOCC2)cc1	-8.7%	-3.6%
CCOC(=O)CNC(=O)CSc1nnc(-c2ccco2)n1Cc1ccco1	3.6%	-1.0%
FC(F)Oc1ccc(NC(=S)NC2CCSc3ccccc32)cc1 (configuration not stated)	-12.5%	-9.8%
O=C(c1ccco1)N(CCCN1CCOCC1)c1nc(-c2ccc(Cl)cc2)cs1	5.9%	-5.3%
Cc1cc(C)n2nc(SCC(=O)NC(=O)c3ccccc3)nc2n1	11.8%	nt
CCn1c2ccccc2c2nnc(SCC(=O)Nc3c(C)n(C)n(-c4ccccc4)c3=O)nc21	-0.3%	-0.2%
CCOC(=O)c1c(-c2ccc(Cl)cc2)cn2ccccc12	3.0%	13.6%
CCc1nc2ccc(C(=O)Nc3cccc(C(C)=O)c3)cc2nc1CC	-1.1%	5.0%
COc1cc(/C=C/C(=O)O)cc2c1OCCO2	-9.7%	2.3%
O=C(CSc1nc2ccccc2n1CCc1ccccc1)NC1CC1	-6.6%	-0.2%
COc1ccc(-c2ncc3ccccn23)cc1	0.7%	7.5%
CC(C)Oc1ccc(CNC(=O)c2cnc3sc(N4CCCCC4)nn3c2=O)cc1	13.6%	nt
O=C(CCCNS(=O)(=O)c1cccc2nsnc12)N1CCCCC1	14.2%	-3.2%
COc1cc(N)ccc1Cc1ccc(N)cc1OC	2.6%	10.2%
Cc1ccc(NC(=O)c2ccccc2F)nc1	0.0%	11.7%
Cc1ccc(S(=O)(=O)N2CCN(S(C)(=O)=O)C2c2ccccc2)cc1 (configuration not stated)	-8.0%	-5.2%
CCCCNCC(=O)Nc1sc(C)c(C)c1C(=O)OCC	-7.9%	-2.2%

Of the compounds above, these have a Cl atom.
SMILES	FEN1 inhibitor	N370S GC
O=C(NCCN1CCOCC1)c1ccc(CS(=O)c2ccccc2Cl)o1 (configuration not stated)	-3.9%	-5.2%
O=C(/C=C/c1ccc(Cl)c([N+](=O)[O-])c1)c1cccnc1	-6.9%	7.4%
O=C(Cc1ccc(Cl)cc1)Nc1ccc(N2CCCC2)cc1	0.0%	1.2%
O=C(c1cccc(Cl)c1)N1CCCC(C(=O)N2CCN(c3ccccc3)CC2)C1 (configuration not stated)	-1.1%	-7.8%
COc1ccccc1NC(=O)c1sc2nc(-c3cc4cc(Cl)ccc4oc3=O)[nH]c(=O)c2c1C	14.9%	nt
O=C(c1ccco1)N(CCCN1CCOCC1)c1nc(-c2ccc(Cl)cc2)cs1	5.9%	-5.3%
CCOC(=O)c1c(-c2ccc(Cl)cc2)cn2ccccc12	3.0%	13.6%

New compounds follow.
SMILES	FEN1 inhibitor	N370S GC
COc1ccc(C(=O)NC2CCCCC2)cc1OC1CCN(C(C)C)CC1	-0.6%	-26.0%
CCC(c1ccc(O)cc1)C(CC)c1ccc(O)cc1 (configuration not stated)	-7.1%	-14.6%&0.5%
COc1cccc(NC(=O)CN(C)C(=O)c2cccc(S(=O)(=O)Nc3ccccc3OC)c2)c1	-6.5%	nt
O=C(NN=C1CCCCCC1)c1cc2ccccc2cc1O	-9.6%	-1.4%
O=C(/C=C/Nc1ccc(Cc2ccc(N/C=C/C(=O)C(F)(F)F)cc2)cc1)C(F)(F)F	1.6%	-0.4%
Cc1ccc(NC(=O)c2ccc(=O)n(CC(=O)Nc3cccc(C)c3)n2)cc1	18.3%	nt
COc1ccc(S(=O)(=O)N(C)CC(=O)NCCC2=CCCCC2)cc1	-3.7%	-3.3%
CCCNC(=O)COC(=O)c1ccc(OCC(=O)Nc2ccccc2OC)c(OC)c1	-2.6%	2.7%
Cc1cccc(Sc2nc(-c3ccccc3)ccc2C#N)c1	5.0%	8.8%
Cc1cccc(NC(=O)c2cc([N+](=O)[O-])ccc2N2CCN(C)CC2)c1	0.5%	-11.2%
CCOC(=O)C(=O)/C(=C\N(C)C)c1onc(-c2ccccc2)c1C(=O)OC	-3.2%	4.8%
Cc1cc(C)n(CCNS(=O)(=O)c2ccc(Cl)cc2)n1	-9.1%	-23.0%
CC(C(=O)Nc1nccs1)N1C(=O)C2CC=CCC2C1=O (configuration not stated)	-2.1%	-1.0%
CS(=O)(=O)N(CC(=O)N/N=C/c1ccc(OCC(=O)N2CCOCC2)cc1)c1ccccc1Cl	9.1%	2.7%
COc1ccc(NC2CCCN(C(=O)c3ccncc3)C2)cc1 (configuration not stated)	19.6%	7.0%
CCc1c(C)sc(NC(NC(C)=O)(C(=O)OC)C(F)(F)F)c1C#N (configuration not stated)	-0.7%	14.1%
O=C(NCc1ccc(F)cc1)c1ccc(N2CCc3ccccc32)c([N+](=O)[O-])c1	-2.8%	18.5%
O=C(COC(=O)C1=COCCO1)NC1CCCCCCC1	-5.1%	2.4%
COc1ccc(-c2c(C#CC(C)(C)O)c3ccccc3n2C)cc1	-22.3%	nt
CC(=O)NC(Cc1c[nH]c2ccccc12)C(=O)NCCc1ccccn1 (configuration not stated)	-6.6%	-0.3%
Cc1csc(NC(=O)CSc2nnc3ncccn23)n1	0.0%	-0.4%
CC(C)C(C)(C#N)NC(=O)CSc1nnc(C(F)(F)F)n1C (configuration not stated)	7.2%	8.8%
COc1ccc(OC)c(S(=O)(=O)N2CCCC(C(=O)N3CCCC3)C2)c1 (configuration not stated)	-1.1%	-5.4%
Cc1cc(C)cc(N(CC(=O)NCCSCc2ccco2)S(C)(=O)=O)c1	8.9%	4.7%
Cc1ccc(C)c(NC(=O)CN(C)C(=O)Cc2ccccc2)c1	-1.5%	0.0%
Later entries
SMILES	FEN1 inhibitor	N370S GC
CC(=O)OC[C@H]1O[C@@H](Oc2cc3ccc(=O)oc3cc2OC(C)=O)[C@H](OC(C)=O)[C@@H](OC(C)=O)[C@@H]1OC(C)=O	-4.5%	nt
C=CCC1NCCc2c(Br)cccc21 (configuration not stated)	-10.6%	-1.0%
COc1ccnc(N=CNOCc2cccc(Cl)c2Cl)c1C#N	0.2%	3.3%
CCCCCCn1c(=O)[nH]c2nc3cc(N)c(C)cc3nc2c1=O	-18.8%	16.7%
CCOC(=O)c1c(C)[nH]c(C)c1S(=O)(=O)N1CCC(C(=O)Nc2ccc(C)c(Cl)c2)CC1	-1.7%	nt
CCC(C)(C)NC(=O)C(c1ccc(OC)cc1)N(C(=O)CCC(=O)Nc1cc(C)on1)c1ccccc1OC (configuration not stated)	-5.2%	-22.4%
CC[n+]1ccccc1/C=C/Nc1ccccc1	-13.8%	-18.0%
O=C(CN1C(=O)C2CC=CCC2C1=O)Nc1ccc(S(=O)(=O)NC2=NCCCCC2)cc1 (configuration not stated)	0.0%	3.6%
CC(=O)Oc1ccc2c(C)c(CC(C)O)c(=O)oc2c1 (configuration not stated)	-1.3%	?
COc1ccc(NC(=O)CN2C(=O)C(C)Oc3ccccc32)cc1 (configuration not stated)	-5.7%	-17.0%
CCC(=O)Nc1ccc(N2CCCCC2)c(C(=O)Nc2ccccc2C)c1	-2.9%	23.7%
O=C(CCN1C(=O)C2CC=CCC2C1=O)Nc1cccc(Cl)c1 (configuration not stated)	-3.8%	-15.4%
COc1cccc(CC(=O)Nc2nc3c(s2)C(=O)CC(C)(C)C3)c1	-2.0%	-7.1%
C=CCN1C(=O)/C(=c2\sc3nc(=O)c(Cc4ccccc4Cl)nn3c2=O)c2ccccc21	-4.9%	0.7%
CCCOc1ccc(CNCCCOCC)cc1OC	-3.2%	3.0%
COc1ccccc1CN(C)C(=O)CN1CCN(S(=O)(=O)c2ccc3c(c2)OCCCO3)CC1	3.5%	nt
COc1ccc(-c2csc(=Nc3ccccc3)n2CCO)cc1F	-26.8%	nt
Cc1ccc(C)c(NC(NC(=O)c2ccccn2)C(Cl)(Cl)Cl)c1 (configuration not stated)	12.5%	3.2%
CCOC(=O)N1CCN(C(=O)c2ccccc2CCc2ccccc2)CC1	-7.0%	-12.3%
O=C(CSc1nc(=O)n2ccccc2n1)N1CCCCCC1	4.1%	-11.6%
N=C(c1ccc([N+](=O)[O-])cc1)N1CCCCC1	15.1%	0.6%
Cc1onc(-c2ccccc2)c1C(=O)N/N=C/c1c(F)cccc1Cl	-3.5%	-6.3%
COc1ccc(-n2nc3cc(C)c(NC(=O)c4ccc(-c5ccc(Br)cc5)o4)cc3n2)cc1	-5.5%	nt
CCOc1ccccc1-n1nnnc1SCC(=O)NC(=O)Nc1ccc2c(c1)OCCO2	-6.3%	3.3%
Cc1cc(C)cc(N(C(C)C(=O)NCCC2=CCCCC2)S(C)(=O)=O)c1 (configuration not stated)	1.6%	2.5%
CCC1CCCCN1CCCNC(=O)c1ccc(N2CCOCC2)c(NS(=O)(=O)c2ccc(OC)cc2)c1 (configuration not stated)	-5.9%	-0.4%
S=C(NCc1ccc2[nH]c3c(c2c1)CCCC3)Nc1ccccc1	-26.0%	13.3%
Cc1ccccc1N1CC(C(=O)Nc2nnc(SCCN3CCOCC3)s2)CC1=O (configuration not stated)	-2.9%	2.1%
C[C@H](CCC(=O)O)[C@H]1CC[C@@H]2[C@H]3CC[C@H]4C[C@H](O)CC[C@]4(C)[C@@H]3CC[C@@]21C	nt	2.5%&11.0%
